miR-21 FLuc: raises the signal of a miR-21 reporter. Potency, µM (series often up to 38.3 µM), inactives show top-dose reporter change, positive = more light. 340,000 tested, under 10 active. HeLa miR-21 FLuc reporter, luciferase, 48 h; active = well fitted rising curve with a large enough effect; inconclusive = small, poorly fitted or top-dose-only effect; inactive = no such curve, though single readings can be large or run the other way;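 further: % of control where 0% means no effect; miR-21 action dims this reporter so a rising signal means less miR-21 action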
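Using DMEM plus 10% FBS, HeLa miR-21-FLuc cells are incubated with test compounds (final up to about 40uM) for 48 hours; firefly luciferase signal is then imaged following reagent-mediated lysis.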
Rango dissoc inh: inhibition of RanGTP-driven Rango-importin beta dissociation. O95149+P62826. Biochemical FRET Rango-importin beta, RanGTP-induced dissociation. Potency, µM (series often up to 46.1 µM), for inactives: at the top dose activity change, negative = inhibition. actives 0.071% (n = 340,000). AID 540253; active means falling FRET ratio curve, often poorly fitted, with flat reads before Ran was added; inconclusive means other falling curves, or compound fluorescence or quenching; inactive means flat or rising ratio curve;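 further: potency means the concentration at half of the fitted maximal effect; % of control where 0% means no effect; nearly all actives have a fitted effect of over 45% in size; -100% = wells without RanGTP and RCC1; the record marks most hits as doubtful in a second field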
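Rango (0.1 uM)–importin beta (0.25 uM) complex; RanGTP-RCC1 trigger; 45 min RT; CFP/YFP FRET read.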
Rango-impB inh: inhibitors of Rango-importin beta complex formation; Rango CFP/YFP FRET sensor + importin beta, 45 min; actives 0.031% (n = 340,000); Potency, µM (highest dose often 92.2 µM), inactives show at the highest dose inhibition of complex formation; active = rising FRET ratio curve, often small or poorly fitted; inconclusive = mostly compound fluorescence or quenching in the first reads; inactive = flat curves in all reads;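 further: potency means the concentration at half of the fitted maximal effect; 0% = DMSO wells and 100% = buffer wells lacking importin beta; nearly all actives have a fitted effect of over 15% in size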
Target sequence (Q14974 whole entry, looked up): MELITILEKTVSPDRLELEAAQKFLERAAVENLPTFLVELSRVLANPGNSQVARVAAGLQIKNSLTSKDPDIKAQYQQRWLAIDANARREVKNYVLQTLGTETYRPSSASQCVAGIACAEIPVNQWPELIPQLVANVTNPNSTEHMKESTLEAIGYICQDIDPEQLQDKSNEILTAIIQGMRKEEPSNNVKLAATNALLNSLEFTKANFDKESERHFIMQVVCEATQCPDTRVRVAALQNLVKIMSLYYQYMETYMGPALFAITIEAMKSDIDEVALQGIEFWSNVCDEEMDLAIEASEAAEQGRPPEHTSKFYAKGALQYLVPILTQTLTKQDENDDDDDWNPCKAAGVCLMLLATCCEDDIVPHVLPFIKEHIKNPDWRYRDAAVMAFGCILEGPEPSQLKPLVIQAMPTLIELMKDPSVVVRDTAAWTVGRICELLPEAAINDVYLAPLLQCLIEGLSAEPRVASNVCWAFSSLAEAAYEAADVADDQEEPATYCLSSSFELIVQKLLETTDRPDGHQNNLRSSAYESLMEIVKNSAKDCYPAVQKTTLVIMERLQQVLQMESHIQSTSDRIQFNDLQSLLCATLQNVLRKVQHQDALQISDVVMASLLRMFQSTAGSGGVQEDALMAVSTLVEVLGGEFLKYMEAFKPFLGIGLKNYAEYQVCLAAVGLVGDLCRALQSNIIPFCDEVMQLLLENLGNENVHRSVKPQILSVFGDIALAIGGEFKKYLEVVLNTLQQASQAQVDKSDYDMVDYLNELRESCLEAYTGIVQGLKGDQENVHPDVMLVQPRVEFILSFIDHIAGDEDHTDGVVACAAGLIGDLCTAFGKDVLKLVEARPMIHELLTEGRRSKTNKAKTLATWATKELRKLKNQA
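FRET biosensor (snurportin 1 IBB flanked by EYFP and cerulean), 50 nM, with compound 5 min, then 0.125 microM importin beta in PBS, 1 mM DTT, 0.02% Tween-20, 0.1% BSA. CFP/YFP ratio read after 45 min at room temperature; pre-read flags interference.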
GLA inh pH 4.5: alpha-galactosidase A (human) inhibition, pH 4.5. P06280. purified enzyme, 4-MU-alpha-Gal fluorescence, pH 4.5. activity change, negative = inhibition, % at 105 µM. 230,000 tested, under 10 active; inconclusive = small, poorly fitted or top-dose-only inhibition, or a rising curve; inactive = flat fitted curve, though single readings scatter; no compound was filed as active;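 further: 0% = full activity with enzyme and -100% = basal without enzyme; dose as in the result columns while the protocol names 77 µM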
* marks the source's active call; other numbers are inactive results; ? = inconclusive; / = not tested or not shown. A portion of the library (hit frequency here may not be typical).

Below each SMILES: miR-21 FLuc | Rango dissoc inh | Rango-impB inh | GLA inh pH 4.5
Cc1nc(CN(C)C(=O)c2cc(COc3ccc4ncccc4c3)on2)cs1
→ 14% | 9% | -0.9% | 3
CN(C(=O)COC(=O)CSCc1cccc(Cl)c1)c1c(N)n(Cc2ccccc2)c(=O)[nH]c1=O
→ / | -1% | -1.4% | /
Cc1[nH]c2ccc(Br)cc2c(=O)c1CN1CCCCC1
→ -5% | 0% | 2.9% | -2
CN(C1CCCCC1)C(CNS(=O)(=O)c1ccccc1)c1ccccc1 (stereo not given)
→ 0% | -1% | 0.7% | /
CCN(CC)C1CCN(Cc2c(C(=O)N3CCCCCCC3)nc3ccc(Cl)cn23)C1 (stereo not given)
→ -3% | -3% | -3.7% | /
CC(C(=O)NCC1CCCCC1)N(C)Cc1ccc(Cl)cc1 (stereo not given)
→ 3% | 16% | ? | 0
O=C(O)c1cc(S(=O)(=O)N2CCCc3ccccc32)ccc1Cl
→ -7% | 0% | -4.1% | /
COCCNC(=O)c1ccc2c(c1)nc(C)n2-c1cc(OC)c(OC)c(OC)c1
→ -12% | -2% | ? | 1
COc1ccccc1NC(=O)CN(c1ccc(C23CC4CC(CC(C4)C2)C3)cc1)S(C)(=O)=O
→ 10% | -1% | -0.5% | 6
CCN(C(=O)CSc1nnc(C)n1-c1cccc(C)c1)C1CCS(=O)(=O)C1 (stereo not given)
→ / | -19% | 3.2% | /

Single records, from the list above:
`CN(C1CCCCC1)C(CNS(=O)(=O)c1ccccc1)c1ccccc1` (stereo not given) is entered as miR-21 FLuc = 0%; Rango dissoc inh = -1%; Rango-impB inh = 0.7%; GLA inh pH 4.5 = /
`CC(C(=O)NCC1CCCCC1)N(C)Cc1ccc(Cl)cc1` (stereo not given) is entered as miR-21 FLuc = 3%; Rango dissoc inh = 16%; Rango-impB inh = ?; GLA inh pH 4.5 = 0

Later entries.
Below each SMILES: miR-21 FLuc | Rango dissoc inh | Rango-impB inh | GLA inh pH 4.5
CC1=C(C)C(=O)OC(C(C)C2CCC3C4CC=C5CC(OC6OC(COC7OC(CO)C(O)C(O)C7O)C(O)C(O)C6O)CC(O)C5(C)C4CCC23C)C1 (stereo not given)
→ -5% | -2% | -0.7% | -19
CCCn1nc(C(=O)Nc2ccc3c(c2)OCCO3)c2ccccc2c1=O
→ / | -12% | ? | /
COc1cccc(NC(=O)CN2C(=O)C3(OCCCO3)c3ccccc32)c1
→ 10% | 3% | -1.4% | -6
CC1Cc2cc(S(=O)(=O)NCCc3ccccc3)ccc2N1C(=O)C1CC1 (stereo not given)
→ 0% | -9% | -1.4% | /
CC1(C)CC(=O)C(C=NCCN2CCN(C3CC(=O)N(c4ccc(F)cc4)C3=O)CC2)=C(O)C1 (stereo not given)
→ 4% | 13% | -0.8% | 5
O=C(O)/C=C/C(=O)NNC(=O)c1ccccc1Br
→ -16% | -7% | 0.7% | -14
COc1ccc(S(=O)(=O)NCCN2CCOCC2)cc1Br
→ 1% | 15% | -6.7% | /
COc1cc(NC(=O)CN(C)CCOc2ccccc2)c(C)cc1[N+](=O)[O-]
→ 0% | 4% | -0.8% | /
Cc1ccc(NC2CCCN(C(=O)Cc3nonc3C)C2)cc1C (stereo not given)
→ 2% | -11% | -2.0% | /
Cc1ccc(C(=O)CSc2cnc3ccccc3n2)cc1C
→ -40% | -1% | -2.0% | -3
CCOC(=O)C1=NN(c2ccc([N+](=O)[O-])cc2)CC1C(=O)OC (stereo not given)
→ 0% | -14% | ? | 3
Cc1c(N=c2scc(-c3ccccc3)n2CCO)c(=O)n(-c2ccccc2)n1C
→ -4% | -10% | ? | 9
CC(C)(C)OC(=O)N/N=C/c1c[nH]c2ccccc12
→ -46% | 13% | 2.3% | -9
O=C(Nc1ccc(C(=O)O)cc1)/C(=C\c1ccco1)NC(=O)c1ccco1
→ 0% | -17% | -3.4% | /
CN(c1ccc(C(=O)NCc2cccs2)cc1)S(=O)(=O)c1ccccc1
→ -7% | -3% | -4.1% | 3
COc1cc(NC(=O)C(F)(F)F)cc(OC)c1
→ -3% | -11% | -2.2% | 2
C=CCn1c(=O)/c(=C\c2ccsc2)s/c1=C(/C#N)C(=O)NCCN1CCOCC1
→ -10% | 3% | 0.0% | -2
Cc1ccc2nc(/C(C#N)=C\c3cc(O)ccc3[N+](=O)[O-])[nH]c2c1
→ -10% | -16% | ? | -3
C/C=C\C=C\C(=O)Nc1cccc(C2=NOC3(C2)C[C@H](C(N)=O)N(C(=O)c2ccccc2C(=O)c2ccccc2)C3)c1 (stereo not given in full)
→ 21% | -11% | 2.5% | -16
O=C(NCc1ccncc1)Nc1ccccc1
→ -1% | 9% | 2.0% | 3
Cc1ccc(SCCC(=O)Nc2ccc(OCc3ccccc3)cc2)cc1
→ -13% | -15% | -0.4% | -3
O=C1/C(=C/c2ccccc2[N+](=O)[O-])COc2ccccc21
→ ? | 7% | -2.7% | 7
CC1CC(c2ccccc2)NS(=O)(=O)O1 (stereo not given)
→ 2% | -6% | 6.7% | /
Cc1ccccc1OCC(O)Cn1c(Br)nc2c1c(=O)n(C)c(=O)n2C (stereo not given)
→ 19% | 10% | 0.1% | 2
Cc1cc(=O)n(CCC(=O)O)c2ccccc12
→ 3% | -6% | 4.8% | 6
COc1ccc2oc(C(=O)Nc3ccc(N4CCOCC4)cc3)c(C)c2c1
→ / | -18% | ? | /
CN1CCN(S(=O)(=O)CC2(C)C3CCC2(C)C(=O)C3Br)CC1 (stereo not given)
→ 0% | 15% | 1.6% | -3
COc1cc(OC)c(-n2cc(-c3ccc(Cl)cc3)[nH]c2=O)cc1Cl
→ -11% | ? | -0.6% | -1
Cc1ccc(S(=O)(=O)N2[C@@H](c3ccc(Br)cc3)C(C(=O)O)=CC[C@H]2c2cccc(Cl)c2)cc1
→ / | -17% | -0.3% | /
Cc1cc(C)n(-c2cccc(C(=O)O)c2)n1
→ -2% | ? | -1.5% | 16
O=C(Nc1ccc(-c2nnc(-c3ccccc3)o2)cc1)C1CCCO1 (stereo not given)
→ -44% | -7% | 6.0% | 0
CCOC(=O)c1sc2nc(C)nc(NCCc3ccc(S(N)(=O)=O)cc3)c2c1C
→ 1% | -6% | -1.0% | /
Clc1ccccc1N/N=C/c1ccc2c(c1)OCO2
→ -76% | 0% | -1.6% | -6
Cc1c(C2C(C#N)=C(N)N(c3cccc([N+](=O)[O-])c3)C3=C2C(=O)CCC3)cnn1C (stereo not given)
→ -5% | / | / | 3
N#Cc1c(NC(=O)CCN2C(=O)c3ccccc3C2=O)oc(-c2ccccc2)c1-c1ccccc1
→ 2% | 0% | 2.5% | -1
COC(=O)CSc1nnnn1-c1cccc2ccccc12
→ -2% | 14% | ? | 0
O=C(CSc1ccc(-c2ccccn2)nn1)c1ccc([N+](=O)[O-])cc1
→ -8% | 2% | 1.9% | 0
C[N+]1(CCN2C(=O)C3CC=C(Cl)CC3C2=O)CCOCC1 (stereo not given)
→ -2% | -12% | -2.5% | 6
CCN(Cc1ccc(OC)c(F)c1)C(=O)c1cc2ccccc2o1
→ -42% | ? | -2.5% | /
CCOc1ccc(-c2csc(NC(=O)c3cccc(N4C(=O)CCC4=O)c3)n2)cc1
→ -3% | -1% | 3.0% | -13

5 compounds out of the list above, arranged by the number in Rango-impB inh, highest first:
| structure | Rango-impB inh |
| --- | --- |
| O=C(Nc1ccc(-c2nnc(-c3ccccc3)o2)cc1)C1CCCO1 (stereo not given) | 6.0% |
| CCOc1ccc(-c2csc(NC(=O)c3cccc(N4C(=O)CCC4=O)c3)n2)cc1 | 3.0% |
| N#Cc1c(NC(=O)CCN2C(=O)c3ccccc3C2=O)oc(-c2ccccc2)c1-c1ccccc1 | 2.5% |
| Clc1ccccc1N/N=C/c1ccc2c(c1)OCO2 | -1.6% |
| C[N+]1(CCN2C(=O)C3CC=C(Cl)CC3C2=O)CCOCC1 (stereo not given) | -2.5% |

Next part:
Below each SMILES: miR-21 FLuc | Rango dissoc inh | Rango-impB inh | GLA inh pH 4.5
O=C(N/N=C/c1ccncc1)c1ccc(COc2cccc3cccnc23)cc1
→ -11% | 3% | 7.1% | 5
CCC(C)(C)C1CCC2(CC1)NC(=O)N(CC(=O)NCCOc1ccccc1)C2=O (stereo not given)
→ / | -13% | -2.6% | /
CCS(=O)(=O)NCc1csc(C)n1
→ -3% | -10% | -0.6% | 0
COC(=O)CCCC(=O)NCC1(N(C)Cc2ccccc2)Cc2ccccc2C1
→ 5% | -29% | 0.2% | /
O=C(c1ccc(F)cc1)N1CCN(C2CCC(c3ccccc3)CC2)CC1 (stereo not given)
→ 7% | -3% | 0.1% | -10
CCCC(=O)Nc1ccccc1NC(=O)c1ccc(OC)cc1
→ 3% | -21% | -4.3% | 9
CCN(C(=O)COc1ncnc2ccccc12)C1CCCCC1
→ / | 6% | 0.6% | /
O=S(=O)(NC1CC1)c1ccccc1
→ 0% | -2% | -2.3% | /
CCC(C(=O)O)N1C(=O)/C(=C/c2cccn2C)SC1=S (stereo not given)
→ -3% | ? | ? | -12
O=C(COc1ccc(Br)cc1)Nc1ccc2oc(=O)ccc2c1
→ -3% | 2% | 1.7% | /
N#C/C(=C\c1ccc(C(=O)O)cc1)S(=O)(=O)c1cc(Br)ccc1Br
→ -2% | -18% | ? | -5
CCNC(=S)NS(=O)(=O)c1ccc(C)cc1
→ -2% | 0% | -4.3% | 0
CC1CCOC(c2coc3ccccc3c2=O)O1 (stereo not given)
→ -25% | 1% | -6.5% | 0
CCCn1nc(NS(=O)(=O)c2ccc(F)cc2)c2cc3ccccc3nc21
→ -4% | -1% | 2.0% | /
CC(C)c1ccc(Cc2nnc(NCCCO)[nH]c2=O)cc1
→ -2% | 1% | 1.5% | /
CCc1ccccc1NC(=O)CN1CCN(C(=O)CN2C(=O)NC3(CCCCC3C)C2=O)CC1 (stereo not given)
→ / | 9% | 4.0% | /
Cc1cccc(C)c1NC(=S)NC(=O)CCc1ccccc1
→ 0% | -4% | 0.8% | 9
CC(C)(C)n1ncc2c(=O)n(CC(=O)c3ccccc3)cnc21
→ -60% | 12% | -0.4% | 6
NC(=O)C1CC(=O)N(CCc2ccc(F)cc2)C1 (stereo not given)
→ -3% | 8% | -0.5% | /
O=C(/C=C/c1ccccc1[N+](=O)[O-])Nc1cccnc1
→ -63% | -7% | -1.7% | 1
CCc1ncc(/C=C2\C(=O)Nc3ccccc32)[nH]1
→ -10% | ? | ? | -26
COc1cccc2c1OC1(C)CC2/C(=C(\C)O)C(=O)N1 (stereo not given)
→ 3% | 1% | 0.0% | 3
O=C1Nc2ccccc2OC1CC(=O)N1CCN(c2cccc(C(F)(F)F)c2)CC1 (stereo not given)
→ 13% | 0% | 4.2% | -5
O=C(OCn1nnc2ccccc2c1=O)c1ccc(O)cc1
→ 0% | -12% | 0.4% | 2
CCC(CC)C(=O)N=C1SC2CS(=O)(=O)CC2N1CCc1ccc(OC)cc1 (stereo not given)
→ 8% | 15% | -2.8% | -1
COc1ccc(CCN2C(=O)c3[nH]nc(-c4ccccc4O)c3C2c2cccc(Cl)c2)cc1 (stereo not given)
→ 26% | 1% | 0.8% | -12
O=S(=O)(c1ccc(F)cc1)N1CCN(c2ncnc3c2cnn3-c2ccccc2)CC1
→ 0% | -6% | 0.4% | -15
c1ccc(-c2cc(-c3nnco3)c3ccccc3n2)nc1
→ 5% | 4% | -1.8% | -4
COc1ccc(CCNC(=O)c2nnn(CC(=O)Nc3c(C)cc(C)cc3C)c2N)cc1OC
→ -1% | -11% | 2.8% | /
Cc1ccc(NC(=O)NC2CCCN2S(=O)(=O)c2ccc(Cl)cc2)cc1 (stereo not given)
→ 4% | -19% | -5.7% | 5
Cc1ccc(N2C(=O)CSC2c2cccnc2)c(Cl)c1 (stereo not given)
→ 28% | -5% | -0.4% | 26
CCOC(=O)C1(C(F)(F)F)N=C(c2cccnc2)OC(N2CCOCC2)=N1 (stereo not given)
→ -1% | 3% | 3.9% | 3
COC(=O)C1=CO[C@@H](O[C@@H]2O[C@H](CO)[C@@H](O)[C@H](O)[C@H]2O)C2C1C=C[C@@]2(O)CO (stereo not given in full)
→ / | -6% | -4.7% | /
Cc1noc(C)c1COc1ccc(C(=O)OCC(=O)NC23CC4CC(CC(C4)C2)C3)cc1
→ -10% | 9% | 1.9% | -5
Cc1ccc(N(C(=O)CNC(=O)c2ccco2)C(C(=O)NCC2CCCO2)c2ccccc2)c(C)c1 (stereo not given)
→ 12% | -1% | -0.9% | /
CC(=O)N(CCC(Cc1ccccc1)c1ccc2c(c1)OCO2)Cc1ccccc1F (stereo not given)
→ -2% | 9% | 2.3% | -3
